Source: PubChem (several laboratories)
PABP FP inh – PABP poly(A) RNA binding inhibitors, primary screen, biochemical, fluorescence polarization, uHTS; Polyadenylate-binding protein 1 (Homo sapiens), P11940; inhibition, % at 35 µM; hit rate 1% among 290,000; AID 2014, 2009;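 active = 50% or more with normal probe brightness, or confirmed in later tests; inconclusive = above 50% with abnormal brightness, or retests that disagree; inactive = below 50% or failed in later tests; about a fifth of its hits are not listed in these tables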;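 note: calls also rest on retests at 20 µM and on dose response follow-up; controls were probe without protein and protein plus probe with vehicle; some compounds called inactive have numbers as strong as hits; many hits fall short of the cut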
eIF4H FP inh – human eIF4H binding inhibitors, primary screen, translation initiation inhibitor project, biochemical, uHTS, fluorescence polarization; hit rate 0.94% among 290,000; inhibition, % at 35 µM; eIF4H fluorescence polarization binding assay; Eukaryotic translation initiation factor 4H (Homo sapiens), Q15056; AID 2012, 2009;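 active = 50% or more with normal probe brightness, or confirmed in later tests; inconclusive = above 50% with abnormal brightness, or retests that disagree; inactive = below 50% or failed in later tests; about a fifth of its hits are not listed in these tables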;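 note: calls also rest on retests at 20 µM and on dose response follow-up; 0% = protein and probe with vehicle and 100% = probe without protein; strong numbers were not always called active; many hits fall short of the cut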
Rce1 inhib – yeast Rce1p protease inhibitors, primary screen, biochemical, fluorescence, cell-free homogeneous; CAAX prenyl protease 2 (Saccharomyces cerevisiae (strain ATCC 204508 / S288c)), Q03530; yeast membranes, quenched prenylated peptide cleavage fluorescence; calls only; hit rate 0.27% among 290,000; AID 2563, 2010;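 active = fall in fluorescence gain of 50% or more versus controls, with final raw signal at or below 3038400; inconclusive = same 50% fall but final raw signal above 3038400; inactive = fall in fluorescence gain under 50%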;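 note: plate controls were neutral control wells for no effect and wells lacking membranes for full effect; tested at 10 µM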
Target sequence (Q03530 whole entry, looked up): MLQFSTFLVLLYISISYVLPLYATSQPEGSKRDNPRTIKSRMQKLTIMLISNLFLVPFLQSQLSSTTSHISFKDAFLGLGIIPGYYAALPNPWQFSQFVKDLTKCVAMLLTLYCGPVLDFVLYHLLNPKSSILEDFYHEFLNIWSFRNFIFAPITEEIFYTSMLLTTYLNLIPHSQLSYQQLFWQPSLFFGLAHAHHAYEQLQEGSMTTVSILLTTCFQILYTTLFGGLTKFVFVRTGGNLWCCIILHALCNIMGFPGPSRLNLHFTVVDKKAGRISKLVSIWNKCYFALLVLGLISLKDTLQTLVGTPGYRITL
CSC inhib – cancer stem cell viability inhibitors, primary screen, luminescence | cancer stem cell-like cells viability | hit rate 1.1% among 300,000 | inhibition, % at 7.5 µM | AID 2717, 2010;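 active = mean at 75% or more and at least half the replicates too; inconclusive = mean and replicates disagree; tested in HMLE shEcad cells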;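 note: 0% = median of negative and 100% = median of positive control wells; the first replicate is given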
MT1-MMP act inh – blockers of MT1-MMP proenzyme processing, primary screen, HT1080 RFP-PRO-GFP cells, GFP/RFP fluorescence; GFP/RFP ratio fluorescence, overnight; percent of plate control window, DMSO zero; GFP/RFP ratio change, % at 20 µM; hit rate 0.061% among 360,000;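 active = GFP/RFP ratio change of at least 30% with cell ATP level not reduced by more than half and red fluorescence within 50% of control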; note: strong numbers were not always called active
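Test system: HT1080 cells expressing an RFP-PRO-GFP fluorescent reporter construct / Compound dosing: single-point 20 µM compound, 1% DMSO / Schedule: cells overnight before dosing, compound overnight, 37 °C, 5% CO2 / Evaluation: GFP/RFP fluorescence ratio / Control set: DMSO and RFP-L50D-GFP cell wells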
UUG fidelity – modulators of yeast start codon fidelity, primary screen, whole organism, S. cerevisiae, single point, plate reader; hit rate 0.13% among 350,000; S. cerevisiae UUG-firefly luciferase reporter, luminescence/redox ratio; AID 602363, 2012; activity score, % at 18.7 µM;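 active = replicate mean at a twofold rise or more, about +100% in these data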;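 note: firefly luciferase made from a UUG start codon reports start codon fidelity; reporter light over untreated wells divided by growth signal over untreated wells; some hits fall short of that in this replicate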
Env fusion inh – inhibitors of HIV-1 Env-driven cell-cell fusion, primary screen, HeLa-JRFL effector, CEM21 target cells, luciferase. AID 651610, 2012. hit rate 1.1% among 360,000. inhibition, % at 12.3 µM;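 active = mean replicate inhibition score of at least 50 and every replicate individually at or above 50; inconclusive = only one of the two criteria met; inactive = mean below 50 and not all replicates reaching 50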;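 note: 0% = plate neutral controls and 100% = maraviroc near 300 nM; one replicate is shown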
eIF4H FP inh retest – recorded beside eIF4H FP inh, whose call it bears; inhibition, %; compound at 20 µM; confirmation average;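 mean of two retest wells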
PABP FP inh retest – recorded beside PABP FP inh, whose call it bears; inhibition, %; compound at 20 µM; confirmation repeats;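 mean of two retest wells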
MT1-MMP act inh RFP – second read-out of MT1-MMP act inh, no call of its own (marks repeat the call); RFP signal change, %; measured here: RFP expression control read;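 0 = vehicle wells; hits needed this value within 50% of zero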
The depositor's hits bear a star; i = inactive; ? = inconclusive; / = not tested or not shown.

SMILES | PABP FP inh | eIF4H FP inh | Rce1 inhib | CSC inhib | MT1-MMP act inh | MT1-MMP act inh RFP | UUG fidelity | Env fusion inh | others
O=C(Cn1ncc2c3ccccc3n(Cc3ccccc3)c2c1=O)NCCCN1CCOCC1 | 5 | -6 | i | 9 | 1 | -1 | -10 | 11
O=C(CSc1oc(-c2cccs2)nc1S(=O)(=O)c1ccc(F)cc1)NCC1CCCO1 (configuration not stated) | 16 | 2 | i | -9 | -9 | -6 | -4 | -110
CN(CC(=O)Nc1cccc(F)c1)C(=O)c1ccc2c(c1)S(=O)(=O)N=C1CCCCCN12 | / | / | i | -3 | -1 | -3 | -3 | -3
CCCCC[C@H](O)/C=C/[C@H]1CCC(=O)[C@@H]1CCCCCCC(=O)N1CCCCC1CO (some centres not stated) | -2 | 7 | i | 19 | -15 | 0 | -4 | -1
CCCc1nc(SCC(=O)Nc2cc(C)on2)c2ccccc2n1 | -10 | 5 | i | 17 | -2 | -7 | -12 | -16
CCCn1nc(NS(=O)(=O)c2ccccc2)c2cc3ccccc3nc21 | 7 | 0 | i | / | 2 | 3 | -11 | -64
Cc1sc2ncnc(N3CCC(C(=O)NNC(=O)c4ccc(Cl)cc4)CC3)c2c1C | / | / | i | -1 | -4 | -16 | 2 | 18
CC(C)n1c(=S)[nH]c2ccccc21 | -3 | -4 | i | -15 | -4 | 2 | -11 | /
CC1(C)Cc2ccccc2C(=C(C#N)C#N)N1 | -7 | 2 | i | -3 | -3 | 3 | / | 7
O=C(Nc1nccs1)c1ccc(Cl)nc1 | 1 | -1 | i | -11 | 0 | 2 | -22 | -18
CC(=O)Nc1cccc(Nc2cc(C)nn2C)c1 | / | / | / | / | 5 | 8 | -8 | 0
CCOC(=O)NC(CC(=O)O)c1ccc(OC)c(OC)c1 (configuration not stated) | 2 | -2 | i | -10 | 0 | 3 | -6 | -11
COCCn1c(-c2ccco2)nc2nc3ccccc3nc21 | ? | ? | ? | -25 | -39 | 10 | -19 | /
Cc1ccc(Cl)cc1N1CCN(S(=O)(=O)c2c(C)noc2C)CC1 | -8 | -5 | i | 4 | -7 | -5 | -14 | 15
Cc1ccccc1OCc1nnc(SCC(=O)N2c3ccccc3Sc3ccc(Cl)cc32)o1 | -10 | -6 | i | 4 | 2 | -8 | -7 | -9
O=C(Cc1ccc(Cl)cc1Cl)NCc1cccnc1 | -10 | 4 | i | -5 | 1 | 1 | / | -7
COc1ccccc1C(=O)NCCC(=O)N1CC(C)OC(C)C1 (configuration not stated) | / | / | / | / | 1 | 1 | -3 | 4
N/C(CCS(=O)(=O)c1ccc(Cl)cc1)=N\OC(=O)c1ccccc1Cl | 2 | -4 | / | -7 | 2 | -1 | / | -49
CNC(=O)C[C@H]1C(=O)N(Cc2ccccc2)C[C@@H]1C | / | / | / | / | -2 | -4 | -13 | -7
O=C(CS(=O)(=O)Cc1ccccc1)Nc1ccc2c(c1)OCO2 | 7 | 5 | i | -12 | 1 | 0 | -15 | -4
O=C(CC(Nc1cccc(Cl)c1Cl)C(=O)OCC(=O)c1cccs1)c1ccccc1 (configuration not stated) | 10 | -5 | i | -20 | -2 | 3 | / | -9
O=C(NCc1ccccc1)C1CCN(C(=O)Cc2ccccc2)CC1 | 0 | 4 | / | -7 | -9 | -2 | -12 | 0
CC1CCC(NC(=O)c2ccc3nc[nH]c3c2)CC1 (configuration not stated) | 4 | 12 | i | -16 | -7 | -3 | -28 | -123
COC(=O)c1sccc1-n1cc(C#N)c(=O)n(C)c1=O | 0 | 0 | i | -10 | -2 | 3 | / | 5
CCOC(=O)c1cc(CC)sc1NC(=O)c1ccc(N2CCOCC2)c([N+](=O)[O-])c1 | 1 | -5 | i | 70 | 4 | 1 | -5 | /
O=C(CCn1c(=S)[nH]c2ccccc2c1=O)NCC1CCCO1 (configuration not stated) | -2 | -12 | i | / | 1 | 0 | -8 | /
Cn1cc(CN2C[C@]3(C)C[C@H]2CC(C)(C)C3)c(-c2ccc3c(c2)OCCO3)n1 | 1 | 2 | / | -4 | -2 | 3 | / | -17
Cc1ccccc1OCC(=O)Nc1ccc(N2CCN(C(=O)c3ccco3)CC2)cc1 | 9 | 2 | i | -2 | 4 | -4 | -4 | 29
CCCCNC(=O)[C@H](Cc1c[nH]c2ccccc12)NC(=O)c1ccccc1Cl | 3 | 0 | / | -9 | 1 | 0 | 9 | -2
Cc1onc(-c2ccccc2)c1C(=O)NNC(=O)c1ccccc1Br | / | / | / | -2 | 2 | 3 | -8 | /
COc1cc(-c2nnc(COC(=O)CSc3cc(C)c4ccccc4n3)o2)cc(OC)c1OC | 9 | 1 | i | -9 | 2 | 4 | 10 | -92
O=C1OC(c2ccc3ccccc3c2O)(c2ccc3ccccc3c2O)c2ccccc21 | / | / | / | / | -17 | 5 | -9 | -52
COC(=O)c1cc(S(=O)(=O)NCc2ccccc2OC)cn1C | 0 | 4 | i | 6 | 5 | -4 | -5 | 3
COc1ccccc1OCc1nnc(SCC(=O)N2CCCCC2)n1-c1ccccc1 | 3 | 4 | i | -7 | 1 | 4 | -1 | -4
COc1cc(NC(=O)c2cc3cccc(OC)c3o2)cc(C(=O)Nc2cccc(C(F)(F)F)c2)c1 | -21 | 18 | i | 36 | -2 | -6 | -14 | 15
CC1CCCCN1S(=O)(=O)c1ccc(C(=O)N(CCCN(C)C)c2nc3ccc(Br)cc3s2)cc1 (configuration not stated) | -16 | 2 | i | 23 | -1 | -2 | 10 | 3
C[C@@]12CCC=C[C@H]1[C@H](c1ccc(C(F)(F)F)cc1)N(Cc1ccccc1)C2=O | 1 | 0 | i | 19 | -11 | -12 | -1 | 23
CCCn1c2ccccc2c2cnn(CC(=O)NCCOC)c(=O)c21 | 2 | -9 | i | -1 | 4 | 3 | -16 | 3
OCCN(CC#CC(O)(c1ccccc1)c1ccccc1)CCO | -4 | 11 | i | 3 | -5 | 1 | / | 3
O=S(=O)(c1ccccc1)N1CCN(CCO)CC1 | 3 | -4 | i | -20 | 0 | 1 | 6 | 14
Cc1ccc(C(=O)NNC(=O)CSc2nnc(CNc3ccc(F)cc3)n2C)cc1 | 17 | 2 | i | -12 | / | / | / | 6
CCN1CCc2nc3sc(C(=O)Nc4cccnc4Cl)c(N)c3cc2C1 | 51 | 50 | i | / | -29 | -15 | -14 | 4 | eIF4H FP inh retest=29;PABP FP inh retest=28
Cc1nc(NCc2ccco2)c(C#N)c2c1COC(C)(C)C2 | 9 | 0 | i | -7 | 3 | 4 | 1 | /
Cc1c(NC(=O)C(=O)/C=C(/O)c2ccccc2)c(=O)n(-c2ccccc2)n1C | 1 | 0 | i | -6 | 0 | 8 | 3 | /
Cc1cc2cc(CN(Cc3cccs3)Cc3nnnn3CC3CCCO3)c(=O)[nH]c2cc1C (configuration not stated) | 6 | -8 | i | -8 | -1 | -4 | -11 | /
CCC(CC)C(=O)Nc1c2cnn(-c3ccccc3)c2nc(=O)n1-c1ccccc1 | -4 | 1 | i | 9 | -5 | 1 | -14 | /
CCOC(=O)N1CCC(NS(=O)(=O)c2ccc3c(c2)C(C)(C)C(=O)N3C)CC1 | -2 | 3 | / | -9 | 2 | 7 | -19 | -66
CC(=O)c1cccc(NC(=O)C2(c3ccccc3)CC2(Cl)Cl)c1 (configuration not stated) | -2 | -2 | i | -13 | 0 | 2 | -32 | -2
Cc1ccc(N(CC(=O)NC2CCCC2)C(=O)c2ccc(C)s2)cc1 | -1 | -10 | i | -12 | -26 | -6 | / | 8
CC(=O)c1cccc(NC(=O)Nc2csc3c2CCCC3)c1 | -3 | 60 | i | -9 | 3 | -1 | 0 | 6 | eIF4H FP inh retest=-4;PABP FP inh retest=3
Cc1cc2c(SCC(=O)NC3CCCC3)ncnc2s1 | 2 | 0 | i | / | -1 | -4 | -12 | -3
CCn1c2ccccc2c2cc(CN3CCN(Cc4cc(OC)ccc4O)CC3)ccc21 | 4 | 4 | i | / | 4 | -3 | -5 | 6
O=C(Nc1ccccn1)c1onc2c1CCCC2 | 6 | 2 | i | 7 | 2 | 3 | -29 | /
COC(=O)c1cc2ccccc2oc1=O | 1 | -6 | i | -7 | 8 | 4 | 0 | -94
CCC(NC(=O)N(Cc1ccccc1)Cc1ccc2c(c1)OCO2)(C(F)(F)F)C(F)(F)F | 6 | 5 | i | 4 | 2 | 2 | -12 | -59
COc1ccccc1NC(=O)CSCc1nc2ccccc2[nH]1 | 11 | -13 | i | -2 | 3 | 2 | / | /
CC(=O)c1cccc(NC(=O)CCC(=O)Oc2ccc(C)cc2)c1 | -1 | -2 | i | -17 | 0 | 0 | -3 | 6
COCCn1c(C)cc(C(=O)COC(=O)c2cc3c(s2)CCC3)c1C | 77* | 91* | i | -18 | 1 | 1 | -15 | 37
CCN1CCC(N2CCN(c3ccc(Cl)cc3)CC2)CC1 | 6 | -6 | i | 13 | / | / | / | /
CCc1cc(-c2nnn(CCC3COCCO3)c2CC)cc(CC)c1-c1cn(Cc2ccccc2)nn1 (configuration not stated) | / | / | / | / | -4 | -15 | -24 | 16
New compounds follow
SMILES | PABP FP inh | eIF4H FP inh | Rce1 inhib | CSC inhib | MT1-MMP act inh | MT1-MMP act inh RFP | UUG fidelity | Env fusion inh | others
O=C(CSc1ccc(Cl)cc1)NN=C1CCCCCC1 | 2 | 13 | i | 12 | 2 | 3 | / | 2
CCC(CC)CN1CCN=C1N(C)C | 2 | 5 | i | -5 | 3 | -1 | -5 | 10
CC[C@@H](C)[C@H](NS(=O)(=O)c1ccc(C)cc1)C(=O)N1CCC(C(=O)NCC(=O)O)CC1 | 5 | -12 | i | 10 | 4 | 5 | 0 | /
Cc1ccnc(NS(=O)(=O)c2ccc(NC(=O)c3ccc(S(=O)(=O)N(C)C)cc3)cc2)n1 | -7 | -4 | i | -5 | 0 | 2 | / | -1
CC(NCc1ccc(S(N)(=O)=O)cc1)C(=O)N1c2ccccc2CC1C (configuration not stated) | 7 | 2 | i | -1 | 1 | -2 | 1 | -9
COc1ccc(Nc2nc(N3CCCC3)c3ccccc3n2)cc1 | -16 | -13 | i | -10 | 4 | -17 | / | /
CN(CC(=O)NCc1ccco1)S(=O)(=O)c1ccc2c(c1)n(C)c(=O)c(=O)n2C | -2 | 3 | i | -5 | -6 | 0 | 13 | 5
COc1cccc(NC(=O)C(=O)NCC(c2ccco2)N2CCc3ccccc3C2)c1 (configuration not stated) | / | / | i | 43 | 1 | -11 | -7 | 14
COCCCNC(=O)c1ccccc1NS(=O)(=O)c1ccc(C)cc1 | 5 | 11 | i | -7 | -2 | 1 | -11 | /

A portion of the library; count on the stated rates, not on these rows.
